# Source: PubChem
# GSK3beta inhib = blocks human GSK3beta kinase activity. GST-GSK3beta kinase, ADP-Glo luminescence, 60 min; active compounds read low. activity score (negative = inhibition), % at 10 µM. 300,000 tested, 0.038% active. AID 2097;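 active means more than half of replicate wells score below -50%, meaning over 50% inhibition versus plate controls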;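 further: 0% = median DMSO wells and -100% = median GW8510 positive control wells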
#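 Assay system: GST-fused GSK3beta enzyme, cell-free / Medium: Tris pH 7.5 buffer with MgCl2, DTT, BSA, heparin / Also added: peptide substrate plus 25 µM ATP (final) / Compound: 10 µM single point / Timing: kinase reaction with compound 60 min at room temperature / Detection: ADP-Glo luminescence / Benchmarks: DMSO neutral wells and GW8510 at 20 µM as positive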
# AI-2 QS modul = Vibrio harveyi AI-2 quorum sensing modulation | Vibrio harveyi JMH597 AI-2 luminescence/OD600 ratio, 9 h; active compounds read low; strain lacks LuxN and CqsS sensors; 0 = neutral-control median | activity change, % at 7.5 µM | 300,000 tested, 0.4% active | AID 2094; in the data active means activity change below about -75%, passing the limit was not always enough;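 further: luminescence divided by OD600 gain over 9 h not by final OD600 alone; inactives centre near 13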
# HIF act = HIF pathway transcriptional activation; activation, % at 7.5 µM (by protocol); 300,000 tested, 0.32% active; AID 1910; U2OS HRE-luciferase reporter, luminescence; normalized: DMSO 0%, desferrioxamine 100%;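 active means mean activation of at least 10% of the iron chelator positive control signal, with at least half of replicates also reaching 10%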
# GSK3A inh = blocks human GSK-3 alpha kinase; P49840; ADP-Glo luminescence, 60 min; inhibition, % at 10 µM; 320,000 tested, 0.1% active; AID 2650;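 in the data active means inhibition above about 50%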;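 further: GST-tagged GSK-3 alpha with peptide substrate and 25 µM ATP; 0% = DMSO neutral wells and 100% = GW8510 positive control wells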
# * hit, by the source's call; . = no result given.
SMILES,GSK3beta inhib,AI-2 QS modul,HIF act,GSK3A inh
N#Cc1ccc(OCC(O)CN2CCC(C(O)(c3ccccc3)c3ccccc3)CC2)cc1 (centres undefined),.,.,0.9,-1
CC(=O)C(=Nc1ccccc1Cl)NNc1ccc(Cl)cc1,-2,9,3.2,-2
Cc1c(CCO)c(=O)oc2n[nH]c(-c3ccccc3)c12,2,13,-0.1,1
Cc1nc2ccccc2c(-c2ccccc2)c1CC(=O)O,0,29,-0.1,-5
NS(=O)(=O)c1ccc(-c2ccc(/C=C3\SC(=O)NC3=O)o2)cc1,9,11,-0.5,34
O=S(=O)(c1ccc(F)cc1)n1cnc2ccccc21,11,2,0.2,0
COc1c(N2CCN[C@H](C)C2)c(F)cc2c(=O)c(C(=O)O)cn(C3CC3)c12,3,16,0.2,-3
COc1nc(N)nc2nc[nH]c12,-1,28,-0.5,-3
O=C(O)[C@@H]1CCCC[C@@H]1C(=O)N1CCc2ccccc2C1CN1C(=O)c2ccccc2C1=O (some centres undefined),4,-5,-0.2,-2
Cn1c(=O)n(C)c2cc(N3CCCCC3)c(NC(=O)c3ccccc3)cc21,3,15,-0.7,-1

# Arranged by number of heavy atoms (smallest number first): four of the compounds above
SMILES,GSK3beta inhib,AI-2 QS modul,HIF act,GSK3A inh
Cc1c(CCO)c(=O)oc2n[nH]c(-c3ccccc3)c12,2,13,-0.1,1
Cc1nc2ccccc2c(-c2ccccc2)c1CC(=O)O,0,29,-0.1,-5
COc1c(N2CCN[C@H](C)C2)c(F)cc2c(=O)c(C(=O)O)cn(C3CC3)c12,3,16,0.2,-3
N#Cc1ccc(OCC(O)CN2CCC(C(O)(c3ccccc3)c3ccccc3)CC2)cc1 (centres undefined),.,.,0.9,-1

# Entries of single compounds, looked up by structure:
# `O=S(=O)(c1ccc(F)cc1)n1cnc2ccccc21` in the list: GSK3beta inhib = 11; AI-2 QS modul = 2; HIF act = 0.2; GSK3A inh = 0
# `O=C(O)[C@@H]1CCCC[C@@H]1C(=O)N1CCc2ccccc2C1CN1C(=O)c2ccccc2C1=O` (some centres undefined) in the list: GSK3beta inhib = 4; AI-2 QS modul = -5; HIF act = -0.2; GSK3A inh = -2

# Ordered by the number under GSK3A inh (highest first): some entries from above
smiles	GSK3beta inhib	AI-2 QS modul	GSK3A inh
Cc1c(CCO)c(=O)oc2n[nH]c(-c3ccccc3)c12	2	13	1
O=S(=O)(c1ccc(F)cc1)n1cnc2ccccc21	11	2	0
N#Cc1ccc(OCC(O)CN2CCC(C(O)(c3ccccc3)c3ccccc3)CC2)cc1 (centres undefined)	.	.	-1

# The list is partial; rates above refer to the full screens.
